# Bioassay records deposited in PubChem by Broad Institute.
# Tgondii IFNg = T. gondii growth inhibition with IFN-gamma, primary screen, cell-based; activity change, negative = inhibition, %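 (about 20 µM by stock and volumes)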; actives 3.8% (n = 69,000); AID 1259416, 2018; Toxoplasma gondii growth in IFN-gamma-treated host cells; stronger effect = lower value; reference of the scale not given here;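 active = below -70%; inconclusive = fit judged invalid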;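 note: host cells are HeLa cells infected with Toxoplasma gondii; parasite growth read as luciferase light; one replicate is shown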
# An asterisk follows results filed as active; i = inactive; ? = inconclusive; & = joins results of further samples.
SMILES,Tgondii IFNg
CC(Cc1ccco1)NC(=O)c1nc(Nc2ccccc2)c2ccccc2n1 (stereo not given),-47
Cc1cc(CC(=O)N2CCC3(CC2)CNC(=O)C3)ccc1F,-2
O=C(NCc1sccc1CSc1ccc(Cl)cc1)Nc1ccccc1F,-28
CCOC(=O)c1cccc(NC(=O)C2CCN(S(=O)(=O)c3ccc4[nH]c(=O)ccc4c3)CC2)c1,287
CCn1c(=O)c(-c2nc(-c3ccc(Cl)cc3)no2)c(O)c2ccc(F)cc21,20
CCOC(=O)N1CCC2(CC1)OC(=O)C(C)=C2C(=O)NCc1cccc(F)c1,-24
O=C(CSc1ncccn1)N1CCCC(c2n[nH]c(=O)n2-c2ccccc2)C1 (stereo not given),19
CC(C)N1CC2(CCN(Cc3cccnc3)CC2)CC1COCC1CC1 (stereo not given),-4
COCc1cc(CN2CCCC2c2cc(-c3cn[nH]c3)cc(C)n2)ccc1OC(C)C (stereo not given),9
CCS(=O)(=O)N1CC2(CN(C(=O)c3ccc(F)cc3)[C@H](CO)c3[nH]c4cc(OC)ccc4c32)C1,126

# Look-ups from above:
# Tgondii IFNg with CCS(=O)(=O)N1CC2(CN(C(=O)c3ccc(F)cc3)[C@H](CO)c3[nH]c4cc(OC)ccc4c32)C1 stands at 126
# Tgondii IFNg with CCOC(=O)N1CCC2(CC1)OC(=O)C(C)=C2C(=O)NCc1cccc(F)c1 stands at -24
# Tgondii IFNg with O=C(NCc1sccc1CSc1ccc(Cl)cc1)Nc1ccccc1F stands at -28
# Tgondii IFNg with Cc1cc(CC(=O)N2CCC3(CC2)CNC(=O)C3)ccc1F stands at -2
# Tgondii IFNg with CCn1c(=O)c(-c2nc(-c3ccc(Cl)cc3)no2)c(O)c2ccc(F)cc21 stands at 20
# Tgondii IFNg with COCc1cc(CN2CCCC2c2cc(-c3cn[nH]c3)cc(C)n2)ccc1OC(C)C (stereo not given) stands at 9

# Returning to the listing, starting 6 compounds before the break.
SMILES,Tgondii IFNg
CCn1c(=O)c(-c2nc(-c3ccc(Cl)cc3)no2)c(O)c2ccc(F)cc21,20
CCOC(=O)N1CCC2(CC1)OC(=O)C(C)=C2C(=O)NCc1cccc(F)c1,-24
O=C(CSc1ncccn1)N1CCCC(c2n[nH]c(=O)n2-c2ccccc2)C1 (stereo not given),19
CC(C)N1CC2(CCN(Cc3cccnc3)CC2)CC1COCC1CC1 (stereo not given),-4
COCc1cc(CN2CCCC2c2cc(-c3cn[nH]c3)cc(C)n2)ccc1OC(C)C (stereo not given),9
CCS(=O)(=O)N1CC2(CN(C(=O)c3ccc(F)cc3)[C@H](CO)c3[nH]c4cc(OC)ccc4c32)C1,126
CN1CC2(CCCN(S(=O)(=O)c3cn(C)cn3)CC2)OC1=O (stereo not given),4
Cc1ccc2c(c1C)-n1cccc1C1(CCN(S(=O)(=O)c3ccc(CC(C)C)cc3)CC1)N2,23
CC(C)COCC1CN(C(=O)/C=C/c2cccs2)Cc2cncn2C1 (stereo not given),-58
COc1cc(Nc2nc(-c3nnc(-c4ccc(Cl)cc4)o3)nc3ccccc23)cc(OC)c1OC,450
COCC(NC(=O)c1sc2ncn(C)c(=O)c2c1C)c1ccnn1C (stereo not given),4
Cc1ccc(C(NC(=O)CN2CC(=O)NC2=O)c2cccnc2)cc1C (stereo not given),-14
C[C@@H]1CN([C@@H](C)CO)C(=O)c2cc(NC(=O)CCC(F)(F)F)ccc2O[C@@H](C)CCCCO[C@@H]1CN(C)C(=O)Nc1cccc2ccccc12,i
C[C@@H]1CN([C@H](C)CO)C(=O)c2c(c3ccccc3n2C)-c2ccccc2CO[C@H]1CN(C)Cc1cccc(C(F)(F)F)c1,-74*
O=C(c1ccc2[nH]ccc2c1)N1CCCN(C2CCN(CC3CC3)C2=O)CC1 (stereo not given),-9
N#C[C@@H]1[C@@H](c2ccc(-c3cccc(F)c3)cc2)[C@@H](CO)N1c1nc(-c2ccccc2)cs1,-1
Cc1nn(Cc2ccccc2)c(C)c1CC(=O)NCCc1nc2ccc(Cl)cc2[nH]1,27
CN(C)CC1(O)CCCN(C(=O)COc2ccc(Cl)c(Cl)c2)C1 (stereo not given),-44
CC(=O)N1CCC(C(=O)NCc2ccccc2)(N(C(=O)c2ccc(C)cc2)c2cc(C)cc(C)c2)CC1,-69
COc1ccc(-c2cccc3c(C(N)=O)cccc23)cn1,14
O=C(NCc1ccco1)C(c1ccccc1)N(C(=O)Cc1cccs1)c1ccccc1 (stereo not given),6
CC(Cn1cnc(-c2ccccc2)c1C1CC1)Oc1cccnc1 (stereo not given),17
N#Cc1nccnc1N1CCN(S(=O)(=O)c2ccc(F)cc2)CC1,36
CN(C)c1ncc(C2Nc3cc(Cl)ccc3C3=NCCCN32)cn1 (stereo not given),2
C[C@@H]1CN([C@@H](C)CO)C(=O)c2cc(NC(=O)Nc3ccccc3)ccc2O[C@@H](C)CCCCO[C@H]1CN(C)C(=O)Nc1ccccc1,-14
Cc1ccc(-c2noc(-c3nnn(Cc4nc(-c5cccc(Cl)c5)oc4C)c3C)n2)cc1,42
Cc1ccc(S(=O)(=O)Nc2ccc3c(c2)CCC(=O)N3C)cc1Cl,-39
CCOc1ccc(C2(c3ccc(Cl)cc3)CCCC2)cc1,18
CN(C)C(=O)CN1C[C@@H]2CCN(C(=O)Nc3ccccc3Cl)CC[C@H]2S1(=O)=O,-65
Cc1ccc(CNC(=O)Cn2c(=O)ccc3cc(S(=O)(=O)N4CCCC4)ccc32)o1,36
N#C[C@H]1[C@@H](c2ccccc2)[C@H](CO)N1C(=O)CCN1CCCCC1,12
O=C(C1CCOCC1)N1[C@@H](CO)[C@@H](c2ccccc2)C12CN(Cc1cccc(Cl)c1)C2,-3
COCCCN1CC2(CCCCN2C(=O)c2ccn[nH]2)CC1=O (stereo not given),5
COc1ccc(S(=O)(=O)N2CCC[C@@H]2Cn2nnc(-c3ccccn3)n2)cc1,6
Cn1nccc1C(=O)N1CC(C(=O)NCCc2ccc(F)cc2)C1,24
CC(NC(=O)c1cc(-c2ccc(F)cc2)no1)c1nc2ccccc2n1C(C)C (stereo not given),-10
CSc1ccc(/C=N/N2CCN(Cc3ccc(C)cc3C)CC2)cc1,66
Cc1cnccc1NCCn1ccnc1-c1sccc1C,1
c1ccc(C(c2ccccc2)c2noc(CN3CCCC(c4nc5ccccc5[nH]4)C3)n2)cc1 (stereo not given),-55
C[C@@H]1CN([C@@H](C)CO)C(=O)CCCn2nncc2CO[C@@H]1CN(C)C(=O)Nc1ccnc(N2CCOCC2)c1,188
C=CCn1c(C2CCCCC2)n[nH]c1=O,-3
O=C(C[C@H]1C=C[C@@H](NC(=O)Nc2ccccc2F)[C@H](CO)O1)NCc1ccc(-c2ccccc2)cc1,-41
O=C(c1ccccc1C1CCNC1)N1CCC(O)(Cn2ccnc2)CC1 (stereo not given),4
Cc1nccn1CC1(O)CCN(CC2CCCCC2)CC1,23
O=c1c(Cl)c(-n2cccn2)cnn1-c1ccc(Cl)cc1Cl,56
O=C(C[C@@H]1C=C[C@H](NC(=O)Cc2cccnc2)[C@@H](CO)O1)NCc1ccc2c(c1)OCO2,-33
COc1ccc2[nH]c(=O)c(CN(C(=O)c3ccco3)C(C)C)cc2c1,27
COc1ccc(C(=O)NCCc2sc(-c3ccc(C)cc3)nc2C)cc1OC,i
COc1cccc(C(=O)N2CCC3(CC2)CCn2c(-c4ccc(C(N)=O)cc4)cnc23)c1,7
CC(=O)N1CCC2(CC1)NCCn1c(-c3ccnn3C)cnc12,-4
NCC[C@H]1CC[C@H](NC(=O)Cc2ccncc2)[C@H](CO)O1,-49
Cc1cccc(C(=O)N2CCC3(CC2)Nc2ccc(Cl)cc2-n2cccc23)c1,-6
C[C@@H](NC(=O)C[C@H]1CC[C@@H]2[C@H](COc3ccc(NC(=O)C4CCOCC4)cc3C(=O)N2C)O1)c1ccccc1,5
Cc1cc2oc(=O)cc(C)c2cc1NC(=O)c1cnc(CN2CCCC2)s1,9
Cc1ccccc1-c1cccc(CN2CCOCC(CN(C)C)C2)c1 (stereo not given),-14
COC(=O)c1sccc1OC(=O)c1ccc(Cl)cc1,-8
# The results go on.
SMILES,Tgondii IFNg
CCOC(=O)CC1COCCN1C(=O)c1ccc2cccc(F)c2n1 (stereo not given),-4
Cc1cc(NCn2ncc3ccccc3c2=O)ccc1Br,-1
Cc1ccc(S(=O)(=O)NCCc2sc(-c3ccc(F)cc3)nc2C)cc1C,28
CCS(=O)(=O)N1Cc2nccn2CC(Cn2ncccc2=O)C1 (stereo not given),5
COc1ccc(Cc2nc(C(C)(C)C)cs2)cc1,-5
S=C(Nc1ccc(Oc2ccc(Cl)cc2)cc1)Nc1cccc(Cl)c1Cl,-32
CO[C@@H]1CN(C)C(=O)c2cc(NC(C)=O)ccc2OC[C@@H](C)N(Cc2ccncc2)C[C@H]1C,106
COc1ccc(F)cc1C(=O)C1CCCN(Cc2cn(C)c3ccccc23)C1 (stereo not given),-15
O=C(O)c1oc2ccccc2c1-n1cccc1,72
Cc1ccc(-c2coc(-c3ccc(NS(=O)(=O)c4ccc(C(C)(C)C)cc4)cc3)n2)c(C)c1,-38
CCO[C@H]1COC[C@@H]1NC(=O)Cc1c(C)[nH]c2ccccc12,5
Cc1snnc1C(=O)Oc1ccccc1-c1nnco1,8
CNS(=O)(=O)c1ccc(CCC(=O)N2CCC(c3nnc(-c4cccs4)o3)C2)cc1 (stereo not given),-12
Cc1oc(C2CCN(C(=O)NC3CCCC3)CC2)nc1C(=O)N1CCCC1,-17
O=C1CN(Cc2ccccc2)C(=NCc2ccco2)S1,-9
Cc1ccc(S(=O)(=O)N[C@@H](C)C(=O)N2CCC(C(=O)N3CCC[C@H]3C(=O)O)CC2)cc1,9
C[C@@H]1CC(=O)N[C@H](c2ccccc2)C/C=C\C[C@H](c2ccccc2)NC1=O,9
COc1ccc(CNC(=O)CN2C(=O)CCc3cc(S(=O)(=O)N4CCCC4)ccc32)cc1,16
Cc1n[nH]c(C)c1Sc1nc2ccccc2s1,42
COc1cccc(CN(Cc2ccco2)C(c2nnnn2C(C)(C)C)C(C)C)c1 (stereo not given),1
Cc1cc(C)cc(OCCCN(C)C(=O)c2nn(C)c(=O)c3ccccc23)c1,62
O=C(c1cccc(Cl)c1)N1CCN(S(=O)(=O)c2cc3c4c(c2)CCC(=O)N4CCC3)CC1,?
COc1cc(=O)[nH]c(SCC(=O)Nc2ccc(Cl)cn2)n1,-21
COc1cc(C(=O)NCCc2sc(-c3cccc(C)c3)nc2C)cc(OC)c1OC,i
CCS(=O)(=O)N1CCC2(CC1)CN(C(=O)c1cccc(F)c1)[C@@H](CO)c1c2c2ccc(OC)cc2n1C,15
CCS(=O)(=O)Nc1ccc2c(c1)C(=O)N(C)[C@H]1CC[C@H](CC(=O)NCCCN3CCOCC3)O[C@@H]1CO2,-28
Fc1ccc(CN2CCC3(CC(Nc4ncc(F)cn4)CO3)C2)cc1 (stereo not given),-25
O=C(Nc1ccccc1)N1CCCC2(CCCN2Cc2ccccc2Cl)C1 (stereo not given),4
O=C1CC2(CCN(c3nccs3)C2)CN1c1ccccc1 (stereo not given),-3
Cc1ccc2oc(=O)n(CCC(=O)N3CCN4CCNC(=O)C4C3)c2c1 (stereo not given),-38
CN(C)CCN1CCC2(CC1)CN(c1cccnc1)C(=O)CO2,30
CC(C)n1nccc1C(=O)N1CCN(S(=O)(=O)c2ccc(F)c(F)c2)CC1,41
CC(C)Cn1cncc1CN1CC(C(=O)O)CC1=O (stereo not given),7
O=C(c1ccc(C2CCCO2)s1)N1C[C@@H]2[C@H](C1)[C@H]1CC[C@@H]2O1 (stereo not given in full),22
COc1cc(-c2nccn2CCCn2nc(C)nc2C)ccc1O,2
CC(=O)N1CCC(C(=O)NCc2ccccc2)(N(Cc2ccccc2C)C(=O)c2ccc(C)cc2)CC1,36
COC(=O)c1cc(Cl)c(NC(=O)c2cc3ccccc3o2)cc1OC,71
Cc1cccc(CN(Cc2ccc(C)o2)C2CC(C)(C)NC(C)(C)C2)n1,10
O=C(O)Cc1ccccc1Sc1ccccc1,43
CCC(C(=O)Nc1ccc(-c2nc(Cn3cccn3)c(C)o2)cc1)c1ccccc1 (stereo not given),-13
Cc1nnc(SCC(=O)N2CCc3c(cc(-c4cccc(Cl)c4)c(=O)n3CC3CC3)C2)o1,-50
CN1c2cc3c(cc2N=C(c2ccc(C(=O)O)cc2)c2ccccc21)C(C)(C)CCC3(C)C,1
COc1ccc(C(=O)CCC(=O)O)c2ccccc12,7
O=C(NCCc1csc(-c2ccccc2)n1)C1CCN(C(=O)c2ccccc2Br)CC1,-11
COc1ccc(N2C(=O)C3CSC(c4ccc(F)cc4)N3C2=O)cc1 (stereo not given),-24
Cc1ccc(NC(=O)N2CCC[C@@]3(C(=O)NCC4CC4)CN(c4ncccn4)C[C@H]3C2)cc1,-26
Cc1oc(-c2ccccc2)nc1Cn1nnc(-c2nc(-c3ccc4c(c3)OCO4)no2)c1C,12
O=C1CN(CC(=O)NCc2ccc(S(=O)(=O)N3CCCC3)cc2)CCN1,1
c1cncc(-c2nnc3sc(-c4cccc5ccccc45)nn23)c1,9
OC1CCN(C(=S)NCCc2ccccc2)CC1,5
Cc1ccccc1-c1ccc(C2[C@H]3CNC[C@@H]2N3Cc2ccccn2)cc1 (stereo not given in full),10&13
c1ccc2nc(N3CCOCC3)c(N3CCOCC3)nc2c1,-8

# Random excerpt: five entries already listed, in no set order.
SMILES,Tgondii IFNg
CC(=O)N1CCC(C(=O)NCc2ccccc2)(N(C(=O)c2ccc(C)cc2)c2cc(C)cc(C)c2)CC1,-69
COc1ccc(Cc2nc(C(C)(C)C)cs2)cc1,-5
CCS(=O)(=O)Nc1ccc2c(c1)C(=O)N(C)[C@H]1CC[C@H](CC(=O)NCCCN3CCOCC3)O[C@@H]1CO2,-28
CCS(=O)(=O)N1Cc2nccn2CC(Cn2ncccc2=O)C1 (stereo not given),5
N#C[C@@H]1[C@@H](c2ccc(-c3cccc(F)c3)cc2)[C@@H](CO)N1c1nc(-c2ccccc2)cs1,-1

# Shown field by field: three of the compounds above
C[C@@H]1CN([C@@H](C)CO)C(=O)CCCn2nncc2CO[C@@H]1CN(C)C(=O)Nc1ccnc(N2CCOCC2)c1
  Tgondii IFNg: 188
C=CCn1c(C2CCCCC2)n[nH]c1=O
  Tgondii IFNg: -3
O=C(C[C@H]1C=C[C@@H](NC(=O)Nc2ccccc2F)[C@H](CO)O1)NCc1ccc(-c2ccccc2)cc1
  Tgondii IFNg: -41

# A portion of the library, so the mix of outcomes need not match the whole.
